High-throughput results (PubChem)
HSV replic up: HSV replication enhancement; HSV replication augmentation in cells, fold increase; 0.005% of 220,000 active; maximum fold increase; AID 1956;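 active means peak rise of 1.5-fold or more in the series; inconclusive means self-fluorescent or not available for retest; tested in PC3 cells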;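 further: first round at 10 µM; read as green reporter fluorescence; hits show the peak of a series up to 25 µM; 1 = signal of infected wells without compound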
Insulin prom inh: TRM-6 insulin promoter activity inhibition. TRM-6 cells (human fetal islet line), insulin promoter-eGFP reporter, imaging; reporter expression induced with tamoxifen. inhibition, % at 2 µM. 0.9% of 130,000 active;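 active means inhibition above the mean plus 3 SD, with well images judged a real hit on visual review, cut at about 60% in these data, passing the limit was not always enough; inconclusive means inhibition over the cutoff but images rejected on review; inactive means inhibition not above the cutoff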
GALR2 agonist: agonists of human galanin receptor 2 (GALR2); 0.48% of 140,000 active; activation, %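 (tested at 5 µM)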; O43603; GALR2-expressing cells, agonist activation read-out;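 active means above mean plus 3 SD of all compounds, about 5% in these data, not always enough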;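 further: 0% = vehicle buffer wells and 100% = reference agonist at full effect; tested in CHO reporter cells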
Target sequence (O43603 whole entry, looked up): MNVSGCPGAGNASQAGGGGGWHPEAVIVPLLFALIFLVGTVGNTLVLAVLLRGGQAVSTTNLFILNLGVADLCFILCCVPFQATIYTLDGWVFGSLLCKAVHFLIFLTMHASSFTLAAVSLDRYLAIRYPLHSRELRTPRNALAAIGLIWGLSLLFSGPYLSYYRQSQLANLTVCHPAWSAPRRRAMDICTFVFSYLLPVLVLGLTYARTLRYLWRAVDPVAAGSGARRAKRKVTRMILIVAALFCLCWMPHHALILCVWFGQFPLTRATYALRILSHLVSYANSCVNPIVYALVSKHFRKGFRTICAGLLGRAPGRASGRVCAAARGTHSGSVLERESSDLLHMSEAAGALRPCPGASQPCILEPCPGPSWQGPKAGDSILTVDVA
RGS16-Gao: regulators of human RGS16-Galphao interaction | O15492+P09471 | bead-based flow cytometry RGS16-Galphao binding, fluorescence; actives lie on both sides | binding response (% of control), % at 10 µM | 0.38% of 220,000 active | AID 1441;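 active means below 25% or above 175%, edge rows of some plates excepted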;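 further: Galphao activated by GDP with aluminum fluoride before binding; 100% = wells without compound and 0% = beads without RGS; some results beyond the cut were filed as inactive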
Target sequence (O15492 whole entry, looked up): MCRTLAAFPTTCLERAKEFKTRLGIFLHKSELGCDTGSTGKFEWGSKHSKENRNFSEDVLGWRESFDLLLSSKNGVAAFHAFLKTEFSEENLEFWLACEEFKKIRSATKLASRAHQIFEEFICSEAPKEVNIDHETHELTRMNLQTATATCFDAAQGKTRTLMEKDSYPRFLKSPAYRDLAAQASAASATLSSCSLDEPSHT
Target sequence (P09471 whole entry, looked up): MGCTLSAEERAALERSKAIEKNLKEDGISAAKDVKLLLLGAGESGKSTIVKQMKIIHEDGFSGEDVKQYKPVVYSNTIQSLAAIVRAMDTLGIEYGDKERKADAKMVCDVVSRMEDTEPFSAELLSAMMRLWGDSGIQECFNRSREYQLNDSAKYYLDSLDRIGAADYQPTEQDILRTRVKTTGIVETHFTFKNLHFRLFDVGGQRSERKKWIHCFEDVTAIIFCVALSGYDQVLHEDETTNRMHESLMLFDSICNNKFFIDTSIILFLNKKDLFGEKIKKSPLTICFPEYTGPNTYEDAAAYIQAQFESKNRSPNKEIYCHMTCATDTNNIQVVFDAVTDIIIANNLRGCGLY
PKD1 kinase inh: inhibitors of human PKD1 kinase | Q15139 | PKD1 kinase fluorescence polarization assay | inhibition, %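 (about 10 µM by stock and volumes)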 | 0.056% of 200,000 active | AID 797;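 active means inhibition of 50% or more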;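 further: controls were vehicle for no effect and a reference inhibitor for full effect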
Insulin prom inh cell count: recorded beside Insulin prom inh, whose call it bears; normalized cell count, %; measured here: cell count, toxicity; reference of the scale not given here;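 cells exposed to compound for 48 h; stained nuclei by imaging scaled within each plate; lower means fewer cells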
HSV replic up primary fold: recorded beside HSV replic up, whose call it bears; fold increase; compound at 10 µM; measured here: primary screen fold increase 10 uM; tested in PC3 cells;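 GFP signal in the first replicate; 1 = infected wells without compound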
Active calls of the source: *; i = inactive; ? = inconclusive; / = not tested or not shown.

Value order – HSV replic up, HSV replic up primary fold, Insulin prom inh, Insulin prom inh cell count, GALR2 agonist, RGS16-Gao, PKD1 kinase inh
- CC1(C(=O)O)CCC(C(N)=O)C1(C)C (centres undefined)
→ i, 0.99, /, /, /, 93, /
- CCCCC1=CC2=CC(=O)C(C)(OC(=O)CC)C(=O)C2=CN1CCCCO (centres undefined)
→ i, 0.84, /, /, /, 99, /
- CCOC(=O)c1cnc2ccc(Cl)cc2c1Nc1ccc(S(=O)(=O)Nc2ncccn2)cc1
→ i, 1, 12, 137, -2.0, 87, -3
- O=C(CNC(=O)c1ccc(Cl)cc1)OCc1nc2ccccc2s1
→ i, 1.1, /, /, -1.5, 93, -4
- CCN(CC)c1ccc(/C=N/N=C(N)N)c(O)c1
→ i, 0.81, /, /, /, 102, 4
- CCOc1ccc(-c2c(C)n([O-])c3c([n+]2=O)CCCC3)cc1
→ i, 0.94, /, /, -0.1, 102, -4
- N#CCCN(Cc1ccccc1)C(=S)Nc1ccc(F)cc1
→ i, 1.2, /, /, /, 98, /
- COc1cc(/C=C/C(=O)OCC(=O)Nc2cc(C(F)(F)F)ccc2N2CCOCC2)ccc1O
→ i, 0.85, -50, 88, 1.7, 106, 4
- CC(C)(C)c1ccccc1NC(=O)c1c(O)c2cccc3c2n(c1=O)CC3
→ i, 0.95, /, /, /, 100, 7
- CCN(CC)S(=O)(=O)c1cccc(C(=O)Nc2nc3cc4c(cc3s2)OCCO4)c1
→ i, 0.74, 4, 82, -1.3, 96, -4
- O=c1c2cc(NC(=S)NCCCN3CCC(Cc4ccccc4)CC3)ccc2nc2n1CCCCC2
→ i, 0.69, /, /, /, 100, 6
- COc1ccc2c(c1)CCC1C2=NN(/C(C)=C/C(C)=O)C1c1cccc(F)c1 (centres undefined)
→ i, 1, /, /, /, 109, -3
- S=c1[nH]nc(CCc2nc3ccccc3[nH]2)n1-c1cccc(Cl)c1
→ i, 0.87, /, /, /, 99, -5
- Cn1nnnc1SCC(=O)NC(=O)NCc1ccccc1
→ i, 1.1, 20, 47, -2.2, 96, -3
- O=C(NCc1ccco1)c1noc2c1CCCCC2
→ i, 0.99, 21, 85, 0.5, 88, -9
- CCOC(=O)N1CCC(NC(=O)c2csc3c2CCCC3)CC1
→ i, 0.93, /, /, -4.5, 98, -13
- CN(CCC#N)C(=O)COC(=O)c1cccnc1Nc1ccccc1F
→ i, 0.97, 9, 74, /, 110, 0
- CN(C)/C=C/C(=O)c1ccc(Cl)cc1Cl
→ i, 0.93, /, /, /, 101, 1
- Cc1c(C(=O)NC(Cc2ccccc2)c2nc3ccccc3[nH]2)cccc1[N+](=O)[O-] (centres undefined)
→ i, 1.1, 0, 88, -1.9, 105, 6
- Cc1c(-c2cccc(NC(=O)c3ccco3)c2)nc2ncccn12
→ i, 0.99, 7, 76, /, 108, 1
- CC(C)c1nc(-c2ccccc2)c(-c2ccccc2)[nH]1
→ i, 0.99, 87*, 141*, -0.9, 100, -9
- Cc1cc(C)cc(Nc2cc(=O)n(C3CCCCC3)c(=O)[nH]2)c1
→ i, 0.89, /, /, -0.6, 104, 1
- O=C(CCn1c(=O)c2ccccc2n(CC(=O)NCCC2=CCCCC2)c1=O)NCc1ccco1
→ i, 0.81, -43, 69, 86*, 116, -3
- COc1cc(O)c(C(CC(=O)N2CCN(c3ccccc3)CC2)c2ccc(N(C)C)cc2)c(OC)c1 (centres undefined)
→ i, 0.94, /, /, /, 105, /
- CCN(CC)c1ccc2cc(C(=O)NNC(=O)c3ccc(S(=O)(=O)N4CCCCC4)cc3)c(=O)oc2c1
→ i, 0.98, 46, 57, -0.7, 134, -5
- Cn1c(N)c(C(=O)COC(=O)c2ccnc3ccccc23)c(=O)n(C)c1=O
→ i, 0.95, 36, 68, -1.8, 50, -3
- CC(=O)N1CCN(C(=S)c2ccc(Cl)cc2)CC1
→ i, 0.81, 47, 61, -2.1, 141, 0
- Cc1nc(CSc2ccc(Cl)cc2)cc(N2CC(C)OC(C)C2)n1 (centres undefined)
→ i, 0.9, -45, 149, /, 111, -1
- CCC(Sc1nc2ncnc(N)c2[nH]1)C(=O)O (centres undefined)
→ i, 0.91, /, /, /, 97, -10
- CCC(c1nnnn1C1CCCCC1)N(Cc1ccco1)Cc1cc2ccc(OC)cc2[nH]c1=O (centres undefined)
→ i, 0.76, -32, 80, -1.9, 98, -2
- OCC1(CCOc2ccccc2)CCN(Cc2cn[nH]c2-c2ccc(F)cc2)CC1
→ i, 0.84, /, /, /, 99, 3
- CC(C)CC(NC(=O)CCl)c1ccccc1 (centres undefined)
→ i, 0.95, 23, 121, -1.4, 101, 1
- CCOCCOC(=O)C1=C(C)Nc2ccc(C)cc2S1
→ i, 0.81, 0, 128, -2.4, 111, -7
- CCN(CC)S(=O)(=O)c1ccc(N2CCOCC2)c(NC(=O)Cc2ccc(Cl)cc2)c1
→ i, 1.1, /, /, -0.5, 97, 7
- Cc1ccc(CNC(=O)C2CC(c3cc(C(F)(F)F)cc(C(F)(F)F)c3)=NO2)o1 (centres undefined)
→ i, 0.56, /, /, /, 95, /
- COc1ccccc1NC(=S)NN1CCN(C)CC1
→ i, 0.83, -11, 121, 0.0, 98, -13
- CCc1ccccc1NC(=O)CC(c1ccc(OC)cc1)n1cccc1 (centres undefined)
→ i, 1, -37, 93, -2.2, 90, -4
- O=C(c1ccco1)N(Cc1cc2ccccc2[nH]c1=O)C1CCCCC1
→ i, 0.96, 0, 87, 0.6, 102, -9
- CC1=C(C(=O)Nc2cccc(C)n2)C(c2ccc3c(c2)OCO3)C2=C(CC(c3ccco3)CC2=O)N1 (centres undefined)
→ i, 0.98, 41, 82, 1.8, 107, -12
- CC(C)OCc1c(C(=O)OC/C(O)=C(\C#N)c2nc3ccccc3[nH]2)oc2ccccc12
→ i, 1, 0, 112, /, 99, -5
- CC(=O)c1cccc(Nc2ccc(-c3ccccc3F)nn2)c1
→ i, 0.82, 11, 62, /, 84, 4
- CCOC(=O)CCCOC(=O)c1ccc(S(=O)(=O)N(C)C)cc1
→ i, 0.98, 15, 109, 1.1, 94, 0
- Cc1cc(C)c(O)c(-c2cc(C(=O)NCc3ccccc3)[nH]n2)c1
→ i, 0.9, 53, 61, -2.2, 106, -3
- CC(/C=C/c1ccccc1)=N\NC(=O)c1ccc2c(c1)OCCO2
→ /, /, 0, 92, -1.6, 30, -2
- CCC(=NCCc1c(C)[nH]c2ccc(C)cc12)C1=C(O)CC(c2ccccc2)CC1=O (centres undefined)
→ i, 0.68, -175, 8, 1.9, 105, -2
- O=C1NC(c2ccc(-c3ccccc3[N+](=O)[O-])o2)C(C(=O)c2ccccc2)C(O)(C(F)(F)F)N1 (centres undefined)
→ i, 1.1, -6, 159, -0.5, 99, -9
- CCC(=O)N1CCc2cc(S(=O)(=O)CCC(=O)NCc3ccco3)ccc21
→ i, 0.99, 29, 50, /, 99, -1
- COc1ccc(NC(=O)C2(N(CC(C)C)C(=O)Cn3nnnc3N)CCCCC2)cc1
→ /, /, 12, 81, -1.3, 102, -10
- Cc1nn(-c2ccccc2)c(C)c1C(=O)NNC(=O)C(F)(F)F
→ i, 0.91, /, /, /, 96, /
- O=C(NC1CCCC1)C(=O)N(Cc1cccnc1)C(C(=O)NCC1CCCO1)c1ccco1 (centres undefined)
→ i, 0.96, 26, 110, /, 98, -3
- CCOC(=O)N1CCN(C(=O)c2cn(C)c3ccc(S(=O)(=O)N4CCCC4)cc3c2=O)CC1
→ i, 0.66, /, /, -1.6, 101, -4
- COC(=O)c1c(CCl)noc1C(=O)NCC1CCCO1 (centres undefined)
→ i, 0.88, /, /, -1.0, 107, 6
- COc1cnc(-c2cccc(C(F)(F)F)c2)[nH]c1=O
→ i, 0.99, /, /, /, 100, -1
- CCC(=O)NS(=O)(=O)c1cccnc1Nc1ccccc1Cl
→ /, /, 3, 150, -2.0, 362, -5
- N#CCSc1nc2c(c(C3CC=CCC3)c1C#N)CCC2 (centres undefined)
→ i, 1, -21, 57, 1.9, 92, -14
- Cc1cccc(C)c1NC(=O)CN1C(=O)NC(C)(CCc2ccccc2)C1=O (centres undefined)
→ i, 0.96, -18, 115, /, 102, -6
- Cc1ccc(-c2csc(NC(=O)Cc3ccc(F)cc3)n2)o1
→ i, 1, /, /, /, 96, 0
- CC1=CC(C)(C)N(C(=O)CSc2nnc(-c3ccc(C)cc3)o2)c2ccc(C)cc21
→ i, 0.9, -11, 71, -1.0, 103, -9
- CCn1c2ccccc2c2cc(NC(=O)CSc3nnc(-c4cccc(OC)c4)n3N)ccc21
→ i, 0.78, -29, 107, -2.9, 95, 1
- Nc1cc2c3c(cccc3c1)C(=O)N(CCN1CCCC1)C2=O
→ ?, /, /, /, /, 100, /

One compound at a time, from the list above. Screens in order: HSV replic up | HSV replic up primary fold | Insulin prom inh | Insulin prom inh cell count | GALR2 agonist | RGS16-Gao | PKD1 kinase inh
CC(C)CC(NC(=O)CCl)c1ccccc1 (centres undefined) is entered as i | 0.95 | 23 | 121 | -1.4 | 101 | 1
O=C(NC1CCCC1)C(=O)N(Cc1cccnc1)C(C(=O)NCC1CCCO1)c1ccco1 (centres undefined) is entered as i | 0.96 | 26 | 110 | / | 98 | -3
CC(=O)c1cccc(Nc2ccc(-c3ccccc3F)nn2)c1 is entered as i | 0.82 | 11 | 62 | / | 84 | 4
COC(=O)c1c(CCl)noc1C(=O)NCC1CCCO1 (centres undefined) is entered as i | 0.88 | / | / | -1.0 | 107 | 6
N#CCSc1nc2c(c(C3CC=CCC3)c1C#N)CCC2 (centres undefined) is entered as i | 1 | -21 | 57 | 1.9 | 92 | -14

Next part:
Value order – HSV replic up, HSV replic up primary fold, Insulin prom inh, Insulin prom inh cell count, GALR2 agonist, RGS16-Gao, PKD1 kinase inh
- Cc1cc(Cl)ccc1OCc1cn2cccnc2n1
→ i, 0.95, -50, 50, /, 97, 5
- CCCc1cc(=O)[nH]c(SCC(=O)N2CCN(S(=O)(=O)c3ccc(C)cc3C)CC2)n1
→ i, 0.98, -19, 104, 2.7, 114, 0
- CCOC(=O)c1ccc(-n2cncn2)nc1
→ i, 1, 2, 64, -0.7, 306, 0
- CSc1ccccc1NC(=O)CN(C)C(C)C(=O)Nc1ccc(C#N)cc1 (centres undefined)
→ i, 0.97, -50, 72, /, 88, -2
- Cc1sc2nc(CSCC(=O)Nc3ccccc3C#N)[nH]c(=O)c2c1C
→ i, 1.3, /, /, -0.4, 118, -9
- CCN(CC)c1ccc(N)cc1S(=O)(=O)Nc1ccccc1OC
→ i, 1.2, /, /, /, 96, /
- Cc1cc(NCc2ccccn2)n2ncc(-c3ccccc3)c2n1
→ i, 0.65, /, /, /, 105, /
- CCN1C(=O)CS/C1=C(\C#N)S(=O)(=O)c1ccccc1
→ ?, /, -5, 128, -2.2, 97, 0
- CC(NC(=O)c1ccc(Br)s1)c1ccncc1 (centres undefined)
→ i, 0.89, /, /, /, 100, 4
- COC(=O)c1ccc(NC(=O)CSc2nnc(C)n2-c2ccccc2)cc1
→ i, 0.87, -462, 53, -1.7, 98, -2
- NC(=O)c1ccsc1NC(=O)CSc1nnc2ccccn12
→ i, 0.87, /, /, /, 98, 4
- Cc1ccc(-c2nnn(CC(=O)NC3CCCc4ccccc43)n2)cc1 (centres undefined)
→ i, 0.95, 20, 165, -1.6, 90, 1
- Cc1ccc(-c2nc3ccccc3[nH]2)cc1NC(=O)/C=C/c1ccco1
→ i, 0.89, /, /, -1.7, 96, -14
- O=C(Nc1ccc2c(c1)OCO2)C1CCCN(S(=O)(=O)c2cccs2)C1 (centres undefined)
→ i, 1, -91, 87, 0.3, 93, -1
- COC(=O)c1ccccc1NS(=O)(=O)c1ccc2c3c(cccc13)C(=O)N2
→ i, 0.83, 17, 65, -0.1, /, -8
- COc1ccc(C(C)=O)c2c1OCCO2
→ i, 0.93, 43, 94, -2.4, 101, 3
- CC1(C)CC(=O)C=C(NCCc2ccc(S(N)(=O)=O)cc2)C1
→ i, 0.91, 29, 112, -1.3, 98, -2

Of the compounds above, 5 contain a thiophene ring, fused or not:
Value order – HSV replic up, HSV replic up primary fold, Insulin prom inh, Insulin prom inh cell count, GALR2 agonist, RGS16-Gao, PKD1 kinase inh
- CCOC(=O)N1CCC(NC(=O)c2csc3c2CCCC3)CC1
→ i, 0.93, /, /, -4.5, 98, -13
- Cc1sc2nc(CSCC(=O)Nc3ccccc3C#N)[nH]c(=O)c2c1C
→ i, 1.3, /, /, -0.4, 118, -9
- CC(NC(=O)c1ccc(Br)s1)c1ccncc1 (centres undefined)
→ i, 0.89, /, /, /, 100, 4
- NC(=O)c1ccsc1NC(=O)CSc1nnc2ccccn12
→ i, 0.87, /, /, /, 98, 4
- O=C(Nc1ccc2c(c1)OCO2)C1CCCN(S(=O)(=O)c2cccs2)C1 (centres undefined)
→ i, 1, -91, 87, 0.3, 93, -1
